PD-1 reverse act: activators reversing PD-1 mediated T-cell inhibition | 29,000 tested, under 10 active | AID 2316 | primary human CD4 T cells, PD-L1 beads, CellTiter-Glo 96 h | activation, % (concentration not given with the values);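 active means replicate mean of 50% or more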;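 further: 0% = median vehicle wells and 100% = positive control; 100 nL library stock added to about 50 µL; numbers are from one replicate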
YB-1 expr inh: YB-1 expression inhibition; U2OS, qRT-PCR YB-1 vs CDIP delta delta Cp, 16 h; hits give high values; zero = DMSO, each unit about twofold; delta delta Cp (YB-1 minus CDIP) (concentration not given with the values); 30,000 tested, 0.37% active; AID 434959;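 active means delta delta Cp rounded down to an integer at or above 3, about 3 SD of DMSO wells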;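 further: higher means less YB-1 transcript or more CDIP transcript relative to DMSO; stock transfer was 100 nL into about 100 µL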
MITF inhib: inhibitors of MITF; TRPM1 promoter luciferase, luminescence, 24 h; 37,000 tested, 0.28% active; AID 2240; inhibition, % (test concentration not listed);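 active means most replicates at 85% or more, or half of them and the mean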;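 further: human melanocyte line stably carrying TRPM1 promoter luciferase reporter; 0% = vehicle wells and 100% = a positive control; the first replicate is given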
Hedgehog inh: Sonic Hedgehog pathway inhibition; Shh-LIGHT2 Gli-luciferase reporter, 30 h; 22,000 tested, 2.1% active; inhibition, % (test concentration not listed); AID 2313;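 active means replicate mean of 65% or more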;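 further: pathway switched on by Shh-conditioned medium diluted 1 in 25 in low serum; 100 nL library stock added to about 40 µL; 0% = median of neutral wells and 100% = positive control level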
* = called active by the depositor; / = no result given. These rows are one share of the data, so the mix of outcomes need not match the whole.

SMILES	PD-1 reverse act	YB-1 expr inh	MITF inhib	Hedgehog inh
C[C@H]1CN([C@@H](C)CO)C(=O)c2cc(NS(=O)(=O)c3ccc(F)cc3)ccc2O[C@@H]1CN(C)S(=O)(=O)c1cccs1	-0.8	0.37	-8	5
C[C@@H]1CN([C@@H](C)CO)C(=O)c2cccc(NC(=O)c3ccncc3)c2O[C@@H]1CN(C)C(=O)Nc1ccccc1	/	-0.63	-1	-12
C=C1C2=C(O[C@H](/C(C)=C/C(C)CC(C)CC)[C@@H](O)[C@@H]2O)C(=O)N1OC (stereo partly drawn)	0.2	-0.38	-2	19
CC1CCc2c(sc3ncnc(SCCO)c23)C1 (stereo not drawn)	-5.1	/	-100	/
Cc1noc(C)c1NC(=O)Nc1ccc2c(c1)C(=O)N([C@@H](C)CO)C[C@H](C)[C@H](CN(C)Cc1ccc(C(F)(F)F)cc1)O2	3.2	-0.42	-1	/
C[C@@H]1CN([C@@H](C)CO)C(=O)Cc2cc(NS(=O)(=O)c3cn(C)cn3)ccc2O[C@@H]1CN(C)Cc1ccncc1	6.0	0.021	-8	8
C[C@H]1CN([C@@H](C)CO)C(=O)c2cccc(NS(=O)(=O)c3ccc(F)cc3)c2O[C@H]1CN(C)S(=O)(=O)c1ccc(Cl)cc1	2.3	0.3	17	18
Cc1ccc(S(=O)(=O)N(C)C[C@H]2OCCCC[C@@H](C)Oc3ccc(NS(=O)(=O)c4c(C)noc4C)cc3C(=O)N([C@H](C)CO)C[C@@H]2C)cc1	/	-0.33	11	-4
COc1nc(NCCc2ccc(OC)c(OC)c2)nc(OC)n1	0.9	/	3	/
Cc1ccc([N+](=O)[O-])cc1NC(=O)CN(Cc1ccccc1)S(C)(=O)=O	1.5	/	1	/
COc1ccc(NC(=O)Nc2cccc3c2O[C@@H](CN(C)S(=O)(=O)c2ccc(OC)cc2)[C@@H](C)CN([C@H](C)CO)C3=O)cc1	1.7	0.38	-39	2
Cc1ccc2nc(-c3cccc(NC(=O)COc4ccccc4C)c3)oc2c1	1.4	/	-4	/
COc1cccc(NC(=O)CC2NC3CCCCC3NC2=O)c1 (stereo not drawn)	-1.2	/	-26	/
C[C@H]1CN([C@@H](C)CO)C(=O)c2cccc(NC(=O)C3CCOCC3)c2O[C@H]1CN(C)CC1CC1	/	0.044	6	-23
C[C@H]1CN([C@@H](C)CO)C(=O)Cc2cc(NC(=O)C3CCCCC3)ccc2O[C@H]1CN(C)S(=O)(=O)c1ccc(F)cc1	0.7	0.064	4	38
CCn1c(SCC(=O)Nc2ccc(C(N)=O)cc2)nnc1-c1ccco1	-4.0	/	-10	/
Cc1cc(C)c2c(c1C(=O)Nc1cccc(C(F)(F)F)c1)CC(C)(C)C2=O	-0.4	-0.34	60	86*
CC(C)NC(=O)Nc1cccc2c1O[C@@H](CN(C)S(=O)(=O)c1ccc(Cl)cc1)[C@@H](C)CN([C@@H](C)CO)C2=O	0.0	-0.4	16	96*
C=C1C(=O)OC2/C=C(\CO)C(OC(C)=O)C/C=C(/C)CC(OC(=O)/C(C)=C\CO)C12 (stereo not drawn)	-6.0	4.7*	-5	48
O=C(Nc1ccccc1C(F)(F)F)C1c2ccccc2Oc2ccccc21	0.6	-0.21	3	/
COc1ccc(CN(C)C[C@H]2Oc3ccc(NS(C)(=O)=O)cc3C(=O)N([C@@H](C)CO)C[C@@H]2C)cc1	0.3	-0.13	11	-4
CN(c1ccc(OCC(=O)O)cc1)S(=O)(=O)c1ccc(F)cc1	2.6	/	-5	/
Cc1ccc(S(=O)(=O)Nc2ccc3c(c2)C(=O)N([C@@H](C)CO)C[C@H](C)[C@@H](CN(C)Cc2ccc(-c4ccccc4)cc2)O3)cc1	0.0	0.19	3	/
COc1ccc(CN(C)C[C@@H]2Oc3ccc(NS(=O)(=O)c4ccccc4)cc3CC(=O)N([C@@H](C)CO)C[C@@H]2C)cc1	/	0.54	26	8
COc1ccc(S(=O)(=O)N(C)C[C@@H]2OCCCC[C@@H](C)Oc3ccc(NS(=O)(=O)c4cn(C)cn4)cc3C(=O)N([C@H](C)CO)C[C@@H]2C)cc1	/	0.19	12	-11
COc1ccc(NC(=O)C2CCCN2S(=O)(=O)c2ccc(F)cc2)cc1 (stereo not drawn)	1.1	/	-4	/
C[C@H]1CN([C@@H](C)CO)C(=O)Cc2cc(NC(=O)Cc3cn(C)c4ccccc34)ccc2O[C@@H]1CN(C)S(=O)(=O)c1ccc(F)cc1	2.7	0.13	20	-6
CC(C)(c1ccc(NS(=O)(=O)C(F)(F)F)cc1)c1ccc(C(C)(C)c2cccc(NS(=O)(=O)C(F)(F)F)c2)cc1	1.2	-0.56	12	37
COc1ccc(-c2nc3cc(NC(=O)COc4ccc([N+](=O)[O-])cc4)ccc3o2)cc1Cl	0.3	/	37	/
C[C@@H]1CN([C@H](C)CO)C(=O)c2cccc(NC(=O)c3nc4ccccc4s3)c2O[C@@H]1CN(C)Cc1ccncc1	-2.6	-0.33	-12	5
C[C@H](CO)N1C[C@H](C)[C@@H](CN(C)S(=O)(=O)c2ccc(Cl)cc2)Oc2ccc(NS(C)(=O)=O)cc2C1=O	-1.0	0.3	-9	-16
COc1ccc(S(=O)(=O)Nc2ccc3c(c2)C(=O)N([C@H](C)CO)C[C@@H](C)[C@@H](CN(C)S(=O)(=O)c2ccc(C)cc2)O3)cc1	0.0	0.26	17	2
COc1ccc(NC(=O)CN(c2ccc(F)c(Cl)c2)S(C)(=O)=O)cc1Cl	1.3	/	2	/
Cc1onc(-c2c(F)cccc2Cl)c1C(=O)NCC1COc2ccccc2O1 (stereo not drawn)	0.0	/	5	/
O=C(CSc1nc(O)cc(=O)n1-c1ccccc1)N1CCc2ccccc21	0.3	/	-4	/
C[C@H](CO)N1C[C@H](C)[C@H](CN(C)C)Oc2c(NS(=O)(=O)c3cn(C)cn3)cccc2C1=O	3.4	-0.14	-9	-7
CC(C)[C@H]1COC(c2cccc(C3=N[C@@H](C(C)C)CO3)n2)=N1	6.6	-0.45	-4	-81
CCC1=C(C)CN(C(=O)NCCc2ccc(S(=O)(=O)NC(=O)NC3CCC(C)CC3)cc2)C1=O (stereo not drawn)	-1.0	-0.057	-71	-69
CC(C)(CO)NCc1ccc(-c2ccccc2)o1	0.9	/	-14	/
COc1ccc(NC(=O)Nc2cccc3c2O[C@@H](CN(C)Cc2ccc(C(F)(F)F)cc2)[C@@H](C)CN([C@H](C)CO)C3=O)cc1	-3.4	-0.39	9	2
C[C@@H]1CN([C@@H](C)CO)C(=O)c2cc(NS(C)(=O)=O)ccc2O[C@@H]1CN(C)Cc1ccc(Oc2ccccc2)cc1	-0.9	-0.1	4	7
C[C@@H]1CN([C@H](C)CO)C(=O)Cc2cc(NS(=O)(=O)c3cn(C)cn3)ccc2O[C@H]1CN(C)S(C)(=O)=O	1.9	-0.37	-3	-19
C[C@H]1CN([C@@H](C)CO)C(=O)c2cc(NC(=O)Nc3cccc4ccccc34)ccc2O[C@@H]1CN(C)S(=O)(=O)c1ccc(F)cc1	-1.0	0.057	7	-26
c1ccc(-c2nnc(N3CCOCC3)nc2-c2ccccc2)cc1	0.2	-0.12	23	23
CC(C)NC(=O)N(C)C[C@H]1Oc2c(NC(=O)C3CCOCC3)cccc2C(=O)N([C@H](C)CO)C[C@@H]1C	1.8	0.27	3	-22
Cc1ccc(S(=O)(=O)Nc2ccc3c(c2)C(=O)N([C@H](C)CO)C[C@H](C)[C@@H](CN(C)S(=O)(=O)c2ccc(Cl)cc2)OCCCC[C@@H](C)O3)cc1	-3.8	0.068	27	20
Cc1ccc(S(=O)(=O)Nc2cccc3c2O[C@@H](CN(C)C(=O)Nc2ccccc2)[C@H](C)CN([C@@H](C)CO)C3=O)cc1	2.2	-0.26	5	-2
O=C(CN1C(=O)c2ccccc2S1(=O)=O)Nc1ccccc1C(=O)N1CCCC1	1.7	/	5	/
C[C@H](CO)N1C[C@H](C)[C@H](CN(C)C(=O)Nc2cccc3ccccc23)Oc2ccc(NC(=O)CCC(F)(F)F)cc2CC1=O	0.1	-0.0089	0	-42
Cc1noc(C)c1NC(=O)Nc1ccc2c(c1)C(=O)N([C@H](C)CO)C[C@H](C)[C@@H](CN(C)C(=O)Nc1ccc(F)cc1)O2	0.8	0.042	-16	-93
CCN(CC)C(=O)c1ccc(O)c(OC)c1	/	-0.15	-5	17
C[C@@H]1CN([C@@H](C)CO)C(=O)c2cc(NC(=O)CCCCCC(=O)Nc3ccccc3N)ccc2O[C@H]1CN(C)Cc1ccc2c(c1)OCO2	-0.3	-0.11	22	/
O=C(/C=C/c1ccccc1)OCC1=CC[C@@H]2C(C(=O)O)=CO[C@@H](O[C@@H]3O[C@H](CO)[C@@H](O)[C@H](O)[C@H]3O)[C@H]12	2.4	-0.089	2	-53
C[C@@H]1CCCCO[C@H](CN(C)C)[C@@H](C)CN([C@H](C)CO)C(=O)c2cc(NC(=O)Nc3ccc(C(F)(F)F)cc3)ccc2O1	-1.7	0.26	-15	-57
COc1cc(Br)cc2cc(C(=O)NCCCN3CCOCC3)c(=O)oc12	2.3	/	-2	/
C[C@H](CO)N1C[C@H](C)[C@@H](CN(C)C(=O)NC2CCCCC2)Oc2c(NC(=O)Nc3ccccc3)cccc2C1=O	0.4	-0.002	-12	-60
COc1ccc(OCC(=O)Nc2ccc(-c3nc4ccccc4s3)c(Cl)c2)cc1	-4.4	/	26	/
O=C(CSc1nc2sc3c(c2c(=O)n1Cc1ccco1)CCC3)N1CCc2ccccc21	-1.6	/	-4	/
C[C@@H]1CN([C@@H](C)CO)C(=O)c2cccc(NC(=O)Nc3ccc4c(c3)OCO4)c2O[C@H]1CN(C)Cc1ccc(C(=O)O)cc1	1.2	0.25	-49	-41
COc1ccc(NC(=O)N(C)C[C@H]2OCCCC[C@@H](C)Oc3ccc(N(C)C)cc3C(=O)N([C@H](C)CO)C[C@@H]2C)cc1	/	-0.11	-14	-8

Complete entries as entered above. Values in the order: PD-1 reverse act	YB-1 expr inh	MITF inhib	Hedgehog inh
C[C@@H]1CCCCO[C@H](CN(C)C)[C@@H](C)CN([C@H](C)CO)C(=O)c2cc(NC(=O)Nc3ccc(C(F)(F)F)cc3)ccc2O1 across the screens: -1.7	0.26	-15	-57
C[C@H](CO)N1C[C@H](C)[C@H](CN(C)C(=O)Nc2cccc3ccccc23)Oc2ccc(NC(=O)CCC(F)(F)F)cc2CC1=O across the screens: 0.1	-0.0089	0	-42
Cc1ccc(S(=O)(=O)Nc2ccc3c(c2)C(=O)N([C@H](C)CO)C[C@H](C)[C@@H](CN(C)S(=O)(=O)c2ccc(Cl)cc2)OCCCC[C@@H](C)O3)cc1 across the screens: -3.8	0.068	27	20

Compounds shown so far containing a furan ring, fused or not:
SMILES	PD-1 reverse act	YB-1 expr inh	MITF inhib	Hedgehog inh
CCn1c(SCC(=O)Nc2ccc(C(N)=O)cc2)nnc1-c1ccco1	-4.0	/	-10	/
CC(C)(CO)NCc1ccc(-c2ccccc2)o1	0.9	/	-14	/
O=C(CSc1nc2sc3c(c2c(=O)n1Cc1ccco1)CCC3)N1CCc2ccccc21	-1.6	/	-4	/

Additional entries follow:
SMILES	PD-1 reverse act	YB-1 expr inh	MITF inhib	Hedgehog inh
CC(C)NC(=O)Nc1cccc2c1O[C@H](CN(C)Cc1ccccc1)[C@@H](C)CN([C@@H](C)CO)C2=O	1.9	1.1	-6	-6
COc1ccc(NC(=O)Nc2ccc3c(c2)C(=O)N([C@H](C)CO)C[C@H](C)[C@@H](CN(C)C(=O)NC(C)C)OCCCC[C@@H](C)O3)cc1	0.4	-0.11	-9	-26
C[C@@H]1CN([C@H](C)CO)C(=O)Cc2cc(N(C)C)ccc2O[C@@H]1CN(C)Cc1ccc(Cl)c(Cl)c1	-1.8	0.14	-2	7
Cc1noc(C)c1S(=O)(=O)Nc1ccc2c(c1)C(=O)N([C@@H](C)CO)C[C@@H](C)[C@@H](CN(C)Cc1ccncc1)O2	-0.5	0.28	4	-18
COc1ccc(S(=O)(=O)N(C)C[C@@H]2Oc3c(NC(=O)Nc4ccc5c(c4)OCO5)cccc3C(=O)N([C@@H](C)CO)C[C@H]2C)cc1	/	0.029	5	-25
O=C(Cn1cc(C(=O)c2ccccc2F)c2ccccc21)NCC1CCCO1 (stereo not drawn)	0.9	/	-2	/
Cc1ccc(S(=O)(=O)Nc2cccc3c2O[C@H](CN(C)C(=O)Nc2ccc(C(F)(F)F)cc2)[C@H](C)CN([C@H](C)CO)C3=O)cc1	-4.5	0.53	62	37
C[C@@H]1CN([C@H](C)CO)C(=O)Cc2cc(NC(=O)Nc3ccc(F)cc3)ccc2O[C@@H]1CN(C)C	2.9	-0.2	-13	-15
C[C@@H]1CN([C@@H](C)CO)C(=O)c2cc(NC(=O)Nc3ccc(C(F)(F)F)cc3)ccc2O[C@@H]1CN(C)S(C)(=O)=O	0.7	-0.14	4	/
C[C@@H]1CN([C@@H](C)CO)C(=O)c2cccc(NC(=O)c3ccc(-c4nccs4)cc3)c2O[C@@H]1CN(C)Cc1ccc(C(=O)Nc2ccccc2N)cc1	-5.2	-0.32	60	/
C[C@H]1CN([C@@H](C)CO)C(=O)c2cc(NC(=O)CCC(F)(F)F)ccc2O[C@@H]1CN(C)CC1CCCCC1	-2.7	0.49	-10	/

Assay outcomes: PubChem BioAssay, Broad Institute
